# Autofluor counter = flagged as autofluorescent in microsphere protease counterscreen. compound autofluorescence counterscreen, microsphere flow cytometry; active compounds read high. fluorescence intensity (no concentration beside the values). 3.1% of 360,000 active. AID 624483;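 active = at least 3 SD above the mean of all compounds, about 16000 in these data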;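 also: 100 nL of 1 mM stock went into each well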
# * = called active by the depositor. Not all compounds are listed (hit frequency here may not be typical).
SMILES	Autofluor counter
CC(C)C[C@@H]1COc2cccc(N3CCC[C@@H]3CO)c2S(=O)(=O)N1	4157
Cc1ccc2nc(C3CCCCC3)c(Cc3ccccc3)n2c1	6001
CCCCNC(=O)C1c2ccccc2OCC(=O)N1Cc1ccc2c(c1)OCO2 (stereo unspecified)	5305
COC(=O)c1ccc(CSc2nc3c(c(=O)[nH]2)CCC3)cc1	3680
CCC(C)(O)C(=O)OC1C(=O)OC2CC3C(C)=CC(O)C(O)C3(C)C3C4(O)OCC23C1C(C)C4O (stereo unspecified)	5141
CNC(=O)c1ccsc1NC(=O)CS(=O)(=O)c1ccc(F)cc1	2979
CCNC(=O)C1(C)CCN(C(=O)c2ccccc2OC(F)(F)F)C1 (stereo unspecified)	3397
O=C(Nc1ccc(Cl)cc1)c1ccc2sc([C@@H]3O[C@H](CO)[C@@H](O)[C@H]3O)nc2c1	3660
C[C@H](CO)N1C[C@H](C)[C@H](CN(C)Cc2ccccc2)Oc2ncc(Br)cc2C1=O	3164
CN(C(=O)COC(=O)c1cc([N+](=O)[O-])ccc1N1CCOCC1)C1CCCCC1	3795
NC(=O)c1cccc(-c2coc3c(C(=O)NCc4ccccc4)cccc23)c1	3430
O=C(CN1c2cccc3cccc(c23)S1(=O)=O)NCc1ccccc1Cl	4095
COc1cccc(C(NC(C)=O)c2nc(-c3ccc(F)c(Cl)c3)cs2)c1 (stereo unspecified)	3657
CN1CCN(c2cc(-c3ccc4ccccc4c3)nc3ccnn23)CC1	1523
O=C(NCCO)c1cccc(-c2cnc3c(Nc4cccc(OC(F)(F)C(F)F)c4)nccn23)c1	4118
CC(C)c1cccc(C(C)C)c1Nc1cn[nH]c1	6168
CCCC(=O)N(Cc1cc2cc(OC)ccc2[nH]c1=O)c1ccc(OC)cc1	3987
OC[C@H]1O[C@@H](c2nc(-c3ccc(CN4CCOCC4)cc3)no2)[C@H](O)[C@@H](O)[C@H]1O	3855
CCOC(=O)N1CCN(CC(=O)Nc2nccs2)CC1	4014
O=C1CCN(C(=O)Cc2ccccc2)c2ccccc21	3813
Cc1ccc(C(O)c2ncc(-c3ccccc3C)[nH]2)cc1F (stereo unspecified)	4259
COc1ccc(CN2C[C@H]3CON(C)[C@H]3C[C@H]2c2ccc(-c3cccc(F)c3)cc2)cc1	3775
COc1ccc(-c2c(C(=O)c3ccccc3)[nH]c(N)c2C(=O)NC2CC2)cc1OC	4080
C#CCN(C[C@H]1[C@H](OC(=O)NC2CC2)[C@H](OC(=O)NC2CC2)C[C@H]2C(=O)N(c3ccccc3)C(=O)[C@@H]12)S(=O)(=O)c1ccc(C)cc1	3743
CCc1nc2ccc(C(=O)N3CCN(C(=O)c4ccco4)CC3)cn2c1N(C)Cc1nccn1C	3571
CCN(CC)C(=O)c1cccc(-c2csc(C(O)c3ccc(F)c(F)c3)n2)c1 (stereo unspecified)	3839
C[C@@H]1CN([C@@H](C)CO)C(=O)CCCn2nncc2CO[C@H]1CN(C)S(=O)(=O)c1ccc(Oc2ccccc2)nc1	3526
COc1cccc(NC(=O)CN(C)C(=O)/C=C/c2ccc(S(=O)(=O)N3CCCCCC3)cc2)c1	3891
C[C@H]1CN([C@@H](C)CO)S(=O)(=O)c2ccc(Br)cc2O[C@@H]1CN(C)C(=O)c1cccnc1	3621
CC(C)Cn1cc(-c2cccc3nccn23)cn1	3946
O=C1NC[C@H](CCCCN2CCN(CCC3CCCCC3)C(=O)C2=O)N(CCc2ccccc2)C1=O	4997
COc1ccc(NC(=O)C2Cc3c(-c4cccc(C(C)=O)c4)ccnc3O2)cn1 (stereo unspecified)	2971
CCOc1ccccc1N1C(=O)CC(Sc2ccccc2N)C1=O (stereo unspecified)	3474
CC(O)(c1cccc(F)c1)c1nc(-c2ccc3ccccc3c2)cs1 (stereo unspecified)	3569
CCOC(=O)[C@]12CCCC=C1N(Cc1ccc(Cl)cc1Cl)C(=O)[C@H](CC(=O)N1CCN(C(=O)c3ccco3)CC1)C2	6210
CC(=O)Nc1ccc(-c2ccnc3c2CC(C(=O)NCC2CCOCC2)O3)cc1 (stereo unspecified)	4086
CCOC(=O)c1c(CC(C)C)csc1NC(=O)COC(=O)c1cnc(C)cn1	4100
Cc1cccc(C)c1NC(=O)NS(=O)(=O)c1ccccc1	3751
CCCS(=O)(=O)NC(=O)C1(C)CCN(C(=O)c2snnc2C)C1 (stereo unspecified)	3523
CN(C)c1ncnc2c1ncn2[C@H]1CN(Cc2ccc(-c3ccccc3)cc2)C[C@@H](CO)O1	3665
N#Cc1cccc(-c2csc(C(O)(c3ccccc3)C(F)(F)F)n2)c1 (stereo unspecified)	2832
Cc1cc(Br)cn2c(Cc3ccccc3)c(-c3cccc(Br)c3)nc12	6486
C[C@@H]1CN([C@H](C)CO)C(=O)CCCn2nncc2CO[C@H]1CN(C)Cc1ccc(C(F)(F)F)cc1	3635
CCCCN(C=O)c1c(CC)nc2ccc(C(=O)NCCN(C)C)cn12	3896
CC1=C(C(=O)N(C)C)CC(CC(=O)NCc2cccs2)C(=O)N1CCC1=CCCCC1 (stereo unspecified)	3476
COc1cccc(C#Cc2ccc3c(c2)O[C@H](CN(C)C)[C@@H](C)CN([C@@H](C)CO)S3(=O)=O)c1	3693
CCCCCCN1CCN(C2CN(Cc3cn(CCCCCC)nn3)S(=O)(=O)C2)CC1 (stereo unspecified)	5848
CS(=O)(=O)c1ccc(C2=C(CNC(=O)c3ccc([N+](=O)[O-])cc3)[C@H]3CC[C@@H](C2)N3Cc2ccccc2)cc1	3516
O=C(NCc1ccccc1)c1cccc2c(-c3cccnc3)coc12	3879
COc1ccc(N2CSC(=S)N(c3ccc(OC)cc3)C2)cc1	3848
CC1(C)CC(=O)C=C(c2ccc(COC(=O)c3ccccc3)cc2)C1=O	3413
CC(C)CN(C(=O)COc1ccccc1C(=O)NCc1ccccc1)C1CCS(=O)(=O)C1 (stereo unspecified)	3798
CC(C)c1ccc(CC(=O)N2CCC2(C)C(=O)NS(=O)(=O)c2cccc(C#N)c2)cc1 (stereo unspecified)	3792
CCCNC(=O)C1(C)CCCN(C(=O)c2cc(F)ccc2C)C1 (stereo unspecified)	3648
COc1ccc(NC(=O)c2cc(C3CCCCN3S(=O)(=O)c3ccc(F)cc3F)on2)c(C)c1 (stereo unspecified)	3883
CCCCN1C(=O)C(CC(=O)NCCc2ccccn2)CC(C(=O)N(C)C)=C1C (stereo unspecified)	3589
CC(=O)c1ccc(Nc2nc(C(N)CCc3ccccc3)cs2)cc1 (stereo unspecified)	3846
CC(=O)c1cccc(NC(=O)C2Cc3c(-c4ccc(Cl)cc4)ccnc3O2)c1 (stereo unspecified)	3791
CC1CCCCC1NC(=O)CCn1c(=S)[nH]c2ccccc2c1=O (stereo unspecified)	3352
N#Cc1c(NC(=O)COC(=O)C2=COCCO2)sc2c1CCCC2	2875

# Ordered by molecular weight (descending): some entries from above
SMILES	Autofluor counter
C[C@@H]1CN([C@H](C)CO)C(=O)CCCn2nncc2CO[C@H]1CN(C)Cc1ccc(C(F)(F)F)cc1	3635
CC1=C(C(=O)N(C)C)CC(CC(=O)NCc2cccs2)C(=O)N1CCC1=CCCCC1 (stereo unspecified)	3476
O=C1CCN(C(=O)Cc2ccccc2)c2ccccc21	3813

# Carrying on.
SMILES	Autofluor counter
COc1ccc(-c2cnc(C(O)c3ccc(OC)c(F)c3)[nH]2)cc1 (stereo unspecified)	3733
COc1ccc([C@H]2C[C@@H](O)[C@H](n3cc(C4CC4)nn3)CN2C(=O)C2CCCCC2)cc1	3678
CCC(=O)N1CCC1(C)C(=O)Nc1ccc(Cl)c(Cl)c1 (stereo unspecified)	3364
CC(C)=CCOc1ccc2c(C)c(CCC(=O)N3C[C@H]4C[C@@H](C3)c3cccc(=O)n3C4)c(=O)oc2c1C	5385
COc1cccc(C(=O)C(CCC#N)c2ccccc2)c1 (stereo unspecified)	3086
O=C(NCc1ccc(F)cc1)c1ccc(S(=O)(=O)N2CCCC2)cc1	3526
COC(=O)[C@]12CCCCC=C1N(Cc1ccco1)C(=O)[C@H](CC(=O)N1CCCCC1)C2	5250
COc1ccc(CC(N)c2csc(NC(=O)c3ccc(OC)cc3)n2)cc1 (stereo unspecified)	4473
COc1ccc(Cn2cc(CN3CC(N4CC=CC4)CS3(=O)=O)nn2)cc1 (stereo unspecified)	5179
CN(C)c1cccc(CNC(=O)c2csc([C@@H]3O[C@H](CO)[C@H](O)[C@H](O)[C@H]3O)n2)c1	2925
COC(=O)c1cc(OC)c(OC)cc1NC(=O)CCN1C(=O)C2CCCCC2C1=O (stereo unspecified)	3615
CC(C)N(C)c1ncnc2c1ncn2[C@H]1CN(CCc2ccccc2)C[C@@H](CO)O1	3085
NC1=NC2OC(CO)C(O)C2O1 (stereo unspecified)	3903
CC(N)c1csc(Nc2ncccn2)n1 (stereo unspecified)	3970
Cc1c(C(=O)NCc2ccc3c(c2)OCCO3)sc(=O)n1Cc1ccc(C(=O)N(C)C)cc1	5485
O=C1NC[C@H](Cc2ccc(O)cc2)N(C[C@@H]2CCCN2C[C@H](Cc2ccc(O)cc2)N2C[C@H](Cc3ccccc3)N(CCc3ccccc3)C(=O)C2=O)C1=O	6126
COc1ccc(-c2coc3c(C(=O)NCCc4ccccc4)cccc23)c(C)c1	3040
O=C1NC[C@H](CCCCN2CCN(CC3CCCCC3)C(=O)C2=O)N(CCC2CCCCC2)C1=O	4704
COC(=O)C[C@H]1C[C@H]2c3cc(NC(=O)Cc4ccncc4)ccc3O[C@H]2[C@@H](CO)O1	3613
CCCCC1Cc2[nH]c(=S)[nH]c(=O)c2C(c2cccc3ccccc23)O1 (stereo unspecified)	5534
COc1ccc(-c2cnc(C(O)c3ccccc3)[nH]2)cc1 (stereo unspecified)	3486
CC(=O)Nc1cc(-c2ccccc2N(C)C)cn2c(-c3cccc(C(F)(F)F)c3)cnc12	3762
O=C(Nc1nnc([C@@H]2C[C@H](O)[C@@H](CO)O2)s1)c1cccc(OC(F)(F)F)c1	3506
C[C@H](CO)N1C[C@H](C)[C@@H](CN(C)C(=O)c2ccccc2)OCc2cnnn2CCCC1=O	3770
Cc1ccc([C@@H]2C[C@H]3[C@@H](CN2S(=O)(=O)c2ccc(Cl)cc2)C(=O)C[C@@H](c2ccccc2)N3S(=O)(=O)c2ccc(C)cc2)cc1	4030
CSc1ncnc2c1ncn2CCCNCCc1ccccn1	3595
COc1ccc(CCN2C(=O)c3ccccc3C2c2nnnn2Cc2ccccc2)cc1OC (stereo unspecified)	5984
CCCCNC(=O)C1(C)CCCCN1C(=O)c1ccc2c(c1)CCO2 (stereo unspecified)	3290
CCOC(=O)N1CCN(C(=O)c2[nH]c(C(F)(F)F)nc2-c2ccccc2)CC1	4373
O=C(Cc1ccccc1)CC(CC(=O)c1ccccc1)c1ccccc1 (stereo unspecified)	2880
CCCC(=O)N1CCC1(C)C(=O)NS(=O)(=O)c1ccccc1 (stereo unspecified)	3552
Cc1ccc(NC(=O)C2(C)CCN2C2Cc3ccccc3C2)cc1 (stereo unspecified)	3733
COc1ccc(Cc2c(-c3ccc(F)cc3)nc3c(C)cc(Br)cn23)c(C)c1	6723
Cc1cnc2c(N)cc(C)c(C)c2c1	3531
O=C(NCc1cccc(Cl)c1)c1ccc(S(=O)(=O)N2CCCCC2)cc1	3776
Cc1ccc(S(=O)(=O)N2C[C@H]3[C@H]4C(=O)N(c5ccccc5)C(=O)[C@H]4C[C@H](OC(=O)Nc4cccs4)[C@@]3(O)C2)cc1	3196
O=C(NCCN1CCNC1=O)c1ccc2sc([C@@H]3O[C@H](CO)[C@H](O)[C@H](O)[C@H]3O)nc2c1	3854
Cc1noc(C)c1S(=O)(=O)Nc1ccc2c(c1)C(=O)N([C@H](C)CO)C[C@H](C)[C@H](CN(C)S(=O)(=O)c1ccc(Cl)cc1)OCCCC[C@@H](C)O2	6254
O=C(Nc1ccc2c(c1)OCCO2)C1c2ccccc2OCC(=O)N1C1CC1 (stereo unspecified)	5702
COc1ccccc1Cn1c(=S)[nH]c2cc(C(=O)N3CCCC(C)C3)ccc2c1=O (stereo unspecified)	4176

# Structural class, the entries above with a CF3 group (six)
SMILES	Autofluor counter
CCNC(=O)C1(C)CCN(C(=O)c2ccccc2OC(F)(F)F)C1 (stereo unspecified)	3397
N#Cc1cccc(-c2csc(C(O)(c3ccccc3)C(F)(F)F)n2)c1 (stereo unspecified)	2832
C[C@@H]1CN([C@H](C)CO)C(=O)CCCn2nncc2CO[C@H]1CN(C)Cc1ccc(C(F)(F)F)cc1	3635
CC(=O)Nc1cc(-c2ccccc2N(C)C)cn2c(-c3cccc(C(F)(F)F)c3)cnc12	3762
O=C(Nc1nnc([C@@H]2C[C@H](O)[C@@H](CO)O2)s1)c1cccc(OC(F)(F)F)c1	3506
CCOC(=O)N1CCN(C(=O)c2[nH]c(C(F)(F)F)nc2-c2ccccc2)CC1	4373

# Going on with the list.
SMILES	Autofluor counter
COc1ccc(NC(=O)C2(C)CCCN(C(C)C)C2)cc1F (stereo unspecified)	4030
O=S(=O)(c1cccc(C(F)(F)F)c1)N1c2ccccc2-n2cccc2C1c1cccnc1 (stereo unspecified)	3508
Cc1cccc(-n2ncc3c2CCCC3NC(=O)c2cccs2)c1C (stereo unspecified)	3744
CCCCN1CCCCC1(C)C(=O)NCc1cccs1 (stereo unspecified)	3742
CN(C)c1cccc(CNC(=O)c2ccc3sc([C@H]4C[C@H](O)[C@@H](CO)O4)nc3c2)c1	3711
CC(C)C[C@@H](COCc1ccc(C(F)(F)F)cc1)N1CCN(C(=O)c2ccc(C(F)(F)F)cc2)CCC1=O	5260
CC(C)COC(=O)N1CCCCC1c1cc(C(=O)Nc2ccc3c(c2)OCO3)no1 (stereo unspecified)	3752

# Copied from the list.
# Under Autofluor counter, Cc1cccc(-n2ncc3c2CCCC3NC(=O)c2cccs2)c1C (stereo unspecified) shows 3744
# Under Autofluor counter, CN(C)c1cccc(CNC(=O)c2ccc3sc([C@H]4C[C@H](O)[C@@H](CO)O4)nc3c2)c1 shows 3711

# From PubChem
